Menin MLL FP FL – inhibitors of human menin-MLL interaction, wild-type MLL peptide | Fluorescence polarization, fluorescein-MLL peptide displacement from menin | FP activity change, % at 61.4 µM | 290,000 tested, under 10 active | AID 1766; inconclusive = falling polarisation curve, or a change in total fluorescence; inactive = total fluorescence flat and polarisation flat or rising; no compound was filed as active; the % refers to the polarisation; negative = inhibition;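 further: % of control where 0% means no effect; inhibitors lower the polarisation; unlabelled MLL peptide was the positive control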
ClpP mod – qHTS Assay for Activators of ClpP. purified B. subtilis ClpP, FRET peptide cleavage, 20 min. Potency, µM (top dose mostly 57.5 µM), inactives show at the highest dose activity change, negative = active. 340,000 tested, 1.9% active. AID 651965, 2013; active = well fitted falling curve with a large enough effect; inconclusive = small, poorly fitted or top-dose-only effect; inactive = no such curve, though single readings can be large or run the other way; further: potency means the concentration at half of the fitted maximal effect; the source files actives as falling curves though it sought activators and does not explain the sign; nearly all actives have a fitted effect of over 65% in size; many hits overshoot -100%
Target sequence (P80244 whole entry, looked up): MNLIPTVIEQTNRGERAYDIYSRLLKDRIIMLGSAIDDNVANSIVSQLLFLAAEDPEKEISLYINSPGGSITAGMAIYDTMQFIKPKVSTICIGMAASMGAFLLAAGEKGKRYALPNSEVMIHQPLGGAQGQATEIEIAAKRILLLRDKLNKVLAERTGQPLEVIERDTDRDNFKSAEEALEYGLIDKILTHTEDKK
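Purified B. subtilis ClpP, 10 microg/mL final in Tris/HCl pH8 with KCl, BSA, glycerol and Tween-20, cleaved an Abz/nitrotyrosine-quenched decapeptide. Fluorescence (ex 320, em 430) was read at 0 and 20 min at room temperature. Delta was normalized to 5.8 microM ADEP and DMSO/no-enzyme controls.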
Sfp inh – Sfp phosphopantetheinyl transferase inhibition; Biochemical Sfp PPTase activity, qHTS; 310,000 tested, 3.5% active; Potency, µM, without a hit: max response, negative = inhibition, hits mostly inhibitors; AID 1490; active means well fitted inhibition curve with a large enough effect; inconclusive means small, poorly fitted or top-dose-only effect, or another doubt; inactive means no such curve, though single readings can be large or run the other way;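 further: the enzyme is Sfp with the accession as filed and its product quenches rhodamine fluorescence; potency means the concentration at half of the fitted maximal effect; 0% = enzyme reaction without inhibitor and -100% = no enzyme wells; top concentration of the series not given in the record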
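With Hepes-Na pH 7.6 buffer containing 10 mM MgCl2, Sfp (15 nM) modified BHQ-2-YbbR (12.5 uM) using rhodamine-CoA (5 uM). Two reads 30 minutes apart at 525/598 nm yielded each well's rate.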
TRPV1 potentiator – enhances activation of the human vanilloid receptor TRPV1; potentiation, % at 8.33 µM; 320,000 tested, 0.02% active; AID 540277; Q8NER1; TRPV1-expressing cells, Fluo-8 calcium influx, capsaicin EC20 potentiation; host cell line not named in the record; control for the full effect not named in the record; active means potentiation above 80%; inconclusive means 30% to 80%; inactive means below 30%; further: 0% is about no effect
Target sequence (Q8NER1 whole entry, looked up): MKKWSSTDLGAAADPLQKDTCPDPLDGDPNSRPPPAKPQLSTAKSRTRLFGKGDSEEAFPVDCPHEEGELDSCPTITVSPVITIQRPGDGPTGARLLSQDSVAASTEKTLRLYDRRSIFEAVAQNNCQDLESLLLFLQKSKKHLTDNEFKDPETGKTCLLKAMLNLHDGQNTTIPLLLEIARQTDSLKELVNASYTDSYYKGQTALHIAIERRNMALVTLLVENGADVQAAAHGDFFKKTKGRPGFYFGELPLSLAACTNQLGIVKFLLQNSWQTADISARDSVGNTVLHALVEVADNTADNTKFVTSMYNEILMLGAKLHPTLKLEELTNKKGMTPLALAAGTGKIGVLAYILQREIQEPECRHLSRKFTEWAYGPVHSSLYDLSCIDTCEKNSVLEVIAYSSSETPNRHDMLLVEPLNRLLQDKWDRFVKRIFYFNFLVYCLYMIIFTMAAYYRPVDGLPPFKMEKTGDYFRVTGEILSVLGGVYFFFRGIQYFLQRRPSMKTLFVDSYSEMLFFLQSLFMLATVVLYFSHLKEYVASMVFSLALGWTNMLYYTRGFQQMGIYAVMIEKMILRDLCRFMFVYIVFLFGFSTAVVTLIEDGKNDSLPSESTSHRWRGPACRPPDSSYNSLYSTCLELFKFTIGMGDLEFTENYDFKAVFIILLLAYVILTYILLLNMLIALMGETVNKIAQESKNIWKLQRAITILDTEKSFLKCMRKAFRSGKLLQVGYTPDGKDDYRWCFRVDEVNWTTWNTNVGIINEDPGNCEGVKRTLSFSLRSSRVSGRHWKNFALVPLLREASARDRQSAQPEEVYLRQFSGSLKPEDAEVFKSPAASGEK
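Cells expressing TRPV1 were dye-loaded with Fluo-8 and read kinetically: 10 s baseline, 3 min after compound (agonist portion), then 2 min after EC20 capsaicin (allosteric enhancer portion). Calcium-bound dye fluorescence at 480/520 nm.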
CtBP-E1A blk – CtBP/E1A binding inhibition. AlphaScreen GST-E1A/His-CtBP binding, 1536-well; hits give low values; control for the full effect not named in the record. activity change, % (no concentration beside the values). 340,000 tested, 0.49% active; in the data active means activity change below about -65%; inconclusive means about -30% to -65%; inactive means above about -30%; further: on the % scale 0 is the no-effect control and ±100 the full control effect; compound concentration not given in the record
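AlphaScreen with 125 nM GST-E1A and 125 nM His-CtBP (5X stocks) in Tris pH 8.0, 300 mM NaCl, BSA, Tween 20, TCEP. Compounds preincubated 2 h at 37 deg C, then glutathione donor/nickel acceptor beads added for 1 h at 37 deg C in dark.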
gsp agonist – gsp mutant agonism | AID 624287 | gsp mutant cells, cAMP HTRF, 30 min; control for the full effect not named in the record | Potency, µM (highest dose often 76.9 µM), for the others: at the highest dose activation (cAMP increase), actives largely listed as activators | 340,000 tested, 0.13% active; active = well fitted activation curve with a large enough effect; inconclusive = small, poorly fitted or top-dose-only effect, or another doubt; inactive = no such curve, though single readings can be large or run the other way; cell line not stated here;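 further: phosphodiesterase inhibitor Ro 20-1724 added with compounds to block cAMP breakdown; potency means the concentration at half of the fitted maximal effect; nearly all actives have a fitted effect of over 60% in size; about a fifth of the inactives were tested at one dose only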
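Cells in DMEM/10% FBS with G418 were pretreated with compounds in DMSO plus […] (300 uM stock) for 30 min at 37C. cAMP was measured by HTRF (cAMP-d2 plus anti-cAMP antibody-K) after 30 min at room temperature.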
gsp antag – antagonizes gsp, the McCune-Albright syndrome mutation; gsp-mutant cells, cAMP HTRF, 30 min; control for the full effect not named in the record; AID 624288; Potency, µM (titrated, usually from 76.9 µM), inactives show at the highest dose activity change, negative = inhibition, most hits filed as inhibitors; 340,000 tested, 0.4% active; active = falling curve of any shape with a large fitted effect; inconclusive = falling curve, mostly with a smaller effect; inactive = flat or rising curve; cell line not stated here;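 further: intracellular cAMP measured with PDE inhibitor Ro 20-1724 present during compound exposure; potency means the concentration at half of the fitted maximal effect; on the % scale 0 is the no-effect control and ±100 the full control effect; nearly all actives have a fitted effect of over 65% in size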
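Cells in G418 medium, seeded 16-24 h, 37C; buffer exchange to DPBS + 1 mM CaCl2, 0.5 mM MgCl2, 0.05% BSA; cpds in DMSO + […] (300 uM stock), 30 min 37C; HTRF cAMP detection.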
* hit, by the source's call; u = inconclusive; x = no result given; [ ] = remark or other dose.

Start of the data: the first two compounds, ahead of the listing:
SMILES	Menin MLL FP FL	ClpP mod	Sfp inh	TRPV1 potentiator	CtBP-E1A blk	gsp agonist	gsp antag
CCN(CC)S(=O)(=O)c1ccc(N=Cc2c(C)c(C#N)c(=O)n(C)c2O)cc1	u	-4.0%	-15%	18	8	-28%	13%
O=c1n(Cc2ccccc2Cl)c2sc3c(c2c2ncnn12)CCCC3	-0.7	-25%	6%	10	0	-9%	3%

All compounds of this part, previewed entries included:
SMILES	Menin MLL FP FL	ClpP mod	Sfp inh	TRPV1 potentiator	CtBP-E1A blk	gsp agonist	gsp antag
CCN(CC)S(=O)(=O)c1ccc(N=Cc2c(C)c(C#N)c(=O)n(C)c2O)cc1	u	-4.0%	-15%	18	8	-28%	13%
O=c1n(Cc2ccccc2Cl)c2sc3c(c2c2ncnn12)CCCC3	-0.7	-25%	6%	10	0	-9%	3%
CCOc1ccc(N(CC(=O)O)S(=O)(=O)c2ccc(OC)c(OC)c2)cc1	1.5	-0.3%	14%	13	5	19%	16%
Cc1[nH]c(C(=O)O)c(C)c1C(=O)OC(C)C	1.2	-1.1%	3%	5	2	6%	-2%
O=C(COC(=O)c1ccccc1C(F)(F)F)NC(=O)NCc1ccco1	x	-1.5%	x	x	-11	7%	6%
COc1cccc(CNCCOCCO)c1OC	1.3	-0.5%	14%	-9	6	-9%	10%
Cc1ccc(NC(=O)Cn2cnc3c(oc4nc5c(cc43)COC(C)(C)C5)c2=O)cc1	4.3	0.8%	9%	10	0	u	-6%
Cc1cccc(C(=O)Oc2ccccc2/C=N/Nc2ccc([N+](=O)[O-])cc2)c1	5.1	0.9%	13%	6	11	-46%	-8%
O=c1[nH]c2ccccc2n1CCCOc1ccccc1	3.3	1.2%	4%	-34	1	3%	24%
Cc1cnc(C(=O)OCC(=O)N2CC(C)CC(C)C2)cn1 (stereo not given)	x	-0.1%	x	x	4	-5%	11%
CC(=O)c1cccc(NC(=O)C2=CC(c3ccco3)=NS(=O)(=O)N2C)c1	x	0.8%	3%	0	-7	-4%	-3%
COc1ccccc1NC(=S)N(CCN(C)C)C(C)c1ccncc1 (stereo not given)	-2.0	-0.2%	u	17	x	20%	2%
Cc1nn(CC(=O)N2c3ccccc3NC(=O)C2(C)C)c(C)c1[N+](=O)[O-]	0.7	0.2%	-21%	-4	x	-41%[inhibitor]	-4%
Cc1ccc(N2C(=S)SC3CS(=O)(=O)CC32)cc1 (stereo not given)	-1.2	x	6%	21	7	1%	7%
CCC(NC(=O)COC(=O)C1CC2CCCC(C1)C2=O)c1ccc(Br)cc1 (stereo not given)	x	-3.9%	x	-19	5	2%[15.4 µM]	13%
Cc1ccc(NC(=O)N2CCC(=O)N2)cc1	3.0	0.5%	-1%	-4	-1	2%	13%
C/C(CC(=O)Nc1ccccn1)=N\NC(=O)c1ccccc1O	-3.0	3.6%	17%	13	-25	19%	0%
O=C(O)C(Cc1ccccc1)N=C(NS(=O)(=O)c1ccccc1)c1ccccc1 (stereo not given)	x	x	x	x	-2	11%	7%
CCOC(=O)N1CCN(C(=O)CS(=O)Cc2nc(-c3cccc(C)c3)oc2C)CC1 (stereo not given)	3.9	-8.4%	17%	u	-4	17%	3%
O=C(CSc1nnc(-c2c[nH]c3ccccc23)n1CC1CCCO1)Nc1ccc2c(c1)OCCO2 (stereo not given)	-2.2	0.4%	-5%	16	-2	3%	1%
Cc1ccsc1C(=O)N1CCN(S(=O)(=O)c2cccs2)CC1	-3.4	1.1%	16%	7	2	-14%[15.4 µM]	12%
C#CCn1cc2c(c1-c1ccccc1)c(=O)n(C)c(=O)n2C	x	u	x	x	-2	5%	x
O=C(O)C1CCN(Cc2cccnc2)CC1	-0.2	x	22%	7	1	-6%	-18%
C/C(=N\Nc1ccccn1)c1cccs1	-6.2	x	-26%	-12	0	-4%[15.4 µM]	1%
O=C(CSc1nnc(CCCN2C(=O)c3cccc4cccc(c34)C2=O)n1-c1ccccc1)NCCCO	6.7	u	16%	7	-5	15%	11%
Cn1c(Cc2ccccc2)nnc1SCCC(=O)Nc1ccccc1	-0.1	u	-9%	-5	1	8%	4%
c1ccc(-n2c(-c3ccncc3)nnc2N2CCOCC2)cc1	0.3	-2.7%	-4%	23	13	5%	-6%
OCCNCc1cccc2ccccc12	-7.2	x	13%	1	0	1%[15.4 µM]	3%
Brc1ccc(C2=NC(Cc3ccccc3)CO2)cc1 (stereo not given)	3.7	-2.8%	-1%	21	2	x	-2%
CN1CCN(C(c2ccccn2)c2cc(Cl)c3cccnc3c2O)CC1 (stereo not given)	-1.0	1.2%	32µM*	0	x	u	11%
CCn1c(=N)c(C(=O)NCc2cccnc2)cc2c(=O)n3cccc(C)c3nc21	1.0	x	8%	2	x	x	x
O=C(NCCC1=CCCCC1)c1ccc(-n2cncn2)c([N+](=O)[O-])c1	x	0.5%	x	u	6	-14%	-29%
COCCCNC(=O)/C(C#N)=C1\N=C(NC(=O)c2cccs2)c2ccccc21	13	-4.1%	3%	-6	-2	1%[15.4 µM]	-17%
O=C(CSc1nc(-c2ccccc2)cs1)Nc1cccc([N+](=O)[O-])c1	-0.2	-2.2%	19%	2	-1	12%	-22%
CCOC(=O)C1Nc2ccc(C(=O)O)cc2C2C=CCC12 (stereo not given)	u	x	22µM*	-6	-22	-2%	0%
CCN(CC)C(=O)C(=O)Nc1ccc(OCc2ccccc2)cc1	1.7	x	-6%	6	2	-1%[15.4 µM]	10%
Cc1ccsc1/C=N/NC(=O)c1nnn(-c2nonc2N)c1C(C)C	x	-3.2%	13%	-30	x	-21%	4%
COc1ccccc1CC(=O)N1CCOCC1	2.4	0.8%	0%	-5	0	2%	-5%
CCOC(=O)C(NCc1ccco1)(NC(=O)c1ccc(OC)cc1)C(F)(F)F (stereo not given)	2.0	1.9%	10%	x	-3	10%	9%
CSc1nc2ccc(NC(=O)c3ccc(=O)[nH]c3)cc2s1	-0.7	x	2%	5	-5	24%	-9%
CC(C)(C)c1ccc(C(=O)NCC(=O)NCc2ccccn2)cc1	x	-0.3%	x	11	-3	-17%	7%
CC(C)COC(=O)N(C)C[C@@H]1OCc2cnnn2CCCC(=O)N([C@@H](C)CO)C[C@H]1C	x	-1.3%	x	x	-10	-1%	x
CCCCN1CC(C)(C)[C@H](CC(=O)NC)C1=O	x	-6.7%	x	x	0	-13%	x
Cc1ccc(NC(=S)/C(C#N)=C2/Nc3ccccc3S2)cc1	x	-2.1%	x	x	-9	-52%[inhibitor]	x
Cc1ccc(CNC(=O)COC(=O)c2cc3c(s2)CCC(C)C3)cc1 (stereo not given)	4.3	1.5%	-7%	4	0	15%	8%
CC(C)C(=O)Nc1ccc(C(=O)CSc2nnc(C3CC3)n2C2CC2)cc1	x	-4.1%	x	3	-6	0%	4%
CCN(CC(=O)Nc1ccccc1C(F)(F)F)C(=O)C1CC(=O)N(Cc2ccccc2)C1 (stereo not given)	x	2.3%	x	-6	-2	8%	11%
CC(NC(=O)CSc1nc(=O)cc(N)n1CCc1ccccc1)c1ccccc1 (stereo not given)	11	0.8%	29%	2	-16	-24%	9%
O=C(COc1ccccc1F)c1ccc(O)cc1O	0.0	-0.8%	12%	12	1	-48%[inhibitor]	-12%
CC1CCCN(C(=O)CNC(=O)c2cccs2)C1 (stereo not given)	x	1.2%	x	10	8	-8%	16%
Cc1c(C)n(CCC#N)c2ccccc12	4.2	-24%	27%	7	-3	u	7%
Cc1ccc2c(c1)Oc1ccccc1C=C2C(=O)O	-0.8	x	8%	7	5	-5%[15.4 µM]	-10%
C=CCc1ccccc1OCC(O)CNC(=O)c1ccccc1C(=O)O (stereo not given)	1.9	-1.0%	7%	-10	-1	-13%	0%
O=C1CC(N2CCN(c3ccc(F)cc3)CC2)C(=O)N1Cc1ccc(N2CCCC2=O)cc1 (stereo not given)	-1.3	-3.3%	-1%	3	-1	1%	-24%
Nc1c(C(=O)OCC2CCCO2)c2nc3ccccc3nc2n1-c1ccc2c(c1)OCCO2 (stereo not given)	10.0	u	u	-16	10	-30%[inhibitor]	-1%
COC(=O)[C@H]1CCCN1C(=O)Nc1cccc(Oc2c(F)c(F)c(F)c(F)c2F)c1	-4.9	-1.8%	-15%	-17	4	15%	4%
COc1cc(C(=O)NNC(=O)CCOc2ccccc2C)cc(OC)c1OC	x	-2.0%	x	x	-5	-2%[15.4 µM]	1%
CCON1C(=O)C(C)(C)N(OCC)C(=O)C1(C)C	-5.1	x	14%	16	3	27%	11%
Cc1c(C(=O)O)cnc2c([N+](=O)[O-])cnn12	-0.8	x	7%	10	0	33%[15.4 µM]	x
O=C(CCN1CCN(c2ccc(F)cc2)CC1)Nc1ccccc1F	-0.7	-2.5%	4%	-16	-7	14%	u

(listing goes on)
SMILES	Menin MLL FP FL	ClpP mod	Sfp inh	TRPV1 potentiator	CtBP-E1A blk	gsp agonist	gsp antag
Cc1cc(C)cc(N=c2c([N+](=O)[O-])nn(-c3ccc(Cl)cc3)n2O)c1	0.1	x	9%	10	u	2%[15.4 µM]	3%
CCOC(=O)c1nn(-c2ccc(F)cc2)c(C)c1C(C)=O	0.4	-1.8%	7%	2	-7	-14%	8%
CC(Sc1nnnn1C1CC1)C(=O)N1CC(=O)Nc2ccccc21 (stereo not given)	x	0.9%	x	-2	-2	-29%	-3%
O=C(CCN1CCN(C(=O)c2ccccc2)CC1)c1ccc(Br)cc1	-2.2	x	-5%	0	3	12%	-4%
Cc1ccc(-c2nc(SCC(=O)N(C)C3CCS(=O)(=O)C3)[nH]c2-c2ccc(C)cc2)cc1 (stereo not given)	4.0	u	-5%	0	-16	-13%	-17%
CCN1C(=O)c2ccc(C(=O)Nc3ccc4c(c3)OCO4)cc2C1=O	-3.4	1.3%	15%	-9	5	u	-4%
COC(=O)CN1C(=O)[C@H]2[C@@H](/C=C/c3ccccc3)N3C(=O)CN(Cc4ccccn4)C(=O)[C@@]3(Cc3ccccc3)[C@H]2C1=O	x	-3.4%	x	x	-2	x	0%
Cc1ccc(C(=O)Nc2c3c(nn2-c2ccccc2)CS(=O)(=O)C3)cc1C	x	-0.5%	5%	3	15	11%	8%

Assay outcomes (PubChem BioAssay)
